Hck-Nef inh – inhibitors of human Hck kinase activated by Nef; P08631; Recombinant Hck-YEEI plus Nef, Z-Lyte FRET kinase assay; inhibition, % at 20 µM; 220,000 tested, 0.68% active; AID 463187;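 active = Hck-Nef kinase inhibition above about 50%, limit read from the data; inactive = inhibition below that limit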;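 also: 0% = DMSO with Hck plus Nef and 100% = Hck alone without Nef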
hK5 inh – kallikrein 5 (human) inhibition; 210,000 tested, 0.59% active; Q9Y337; AID 873; recombinant hK5, fluorogenic AMC substrate cleavage; inhibition, % at 5 µM;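 active = inhibition of 40% or more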;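 also: 0% = enzyme controls without compound and 100% = no-enzyme blanks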
Target sequence (Q9Y337 67-293 limits assumed): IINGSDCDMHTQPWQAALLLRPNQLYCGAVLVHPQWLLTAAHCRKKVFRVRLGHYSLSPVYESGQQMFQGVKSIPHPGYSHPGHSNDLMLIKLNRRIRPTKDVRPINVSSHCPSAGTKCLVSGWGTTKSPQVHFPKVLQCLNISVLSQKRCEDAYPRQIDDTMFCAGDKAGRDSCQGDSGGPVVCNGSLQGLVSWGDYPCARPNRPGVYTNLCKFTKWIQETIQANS
thrombin 1536 – thrombin (human) inhibition; P00734; alpha-thrombin, Boc-VPR-AMC fluorogenic substrate cleavage; inhibition, % at 5 µM; 220,000 tested, 0.26% active; AID 1046;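 active = inhibition at or above 40%; inactive = inhibition below 40%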;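 also: 0% = enzyme with no compound and 100% = wells without enzyme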
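Assay system: human alpha-thrombin enzyme. Reagent: Boc-VPR-AMC substrate, 15 µM final. Compound dosing: one concentration per compound, 5 µM, with 0.2% DMSO. Incubation: room-temperature reaction. Technique: AMC fluorescence, 355/460 nm. Measure: % inhibition relative to enzyme controls and enzyme-free blanks.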
FXIIa inh 1536 – inhibitors of human coagulation factor XIIa; P00748; purified FXIIa, Boc-QGR-AMC fluorogenic substrate, 2 h; inhibition, % at 5 µM; 220,000 tested, 0.3% active; AID 800; in the data active = inhibition above about 40%;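 also: 0% = enzyme with no compound and 100% = blank without enzyme; many of its hits are not listed in these tables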
Target sequence (P00748 20-372 limits assumed): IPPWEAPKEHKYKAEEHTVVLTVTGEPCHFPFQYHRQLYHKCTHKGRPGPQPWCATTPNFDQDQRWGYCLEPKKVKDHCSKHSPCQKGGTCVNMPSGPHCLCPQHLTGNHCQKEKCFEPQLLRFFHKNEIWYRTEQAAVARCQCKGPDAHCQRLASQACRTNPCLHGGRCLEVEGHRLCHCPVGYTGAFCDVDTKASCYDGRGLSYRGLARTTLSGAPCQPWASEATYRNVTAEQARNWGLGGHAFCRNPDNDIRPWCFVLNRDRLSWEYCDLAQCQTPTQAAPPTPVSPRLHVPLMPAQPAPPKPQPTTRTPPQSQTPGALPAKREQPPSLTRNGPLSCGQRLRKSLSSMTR
Target sequence (P00748 373-615 limits assumed): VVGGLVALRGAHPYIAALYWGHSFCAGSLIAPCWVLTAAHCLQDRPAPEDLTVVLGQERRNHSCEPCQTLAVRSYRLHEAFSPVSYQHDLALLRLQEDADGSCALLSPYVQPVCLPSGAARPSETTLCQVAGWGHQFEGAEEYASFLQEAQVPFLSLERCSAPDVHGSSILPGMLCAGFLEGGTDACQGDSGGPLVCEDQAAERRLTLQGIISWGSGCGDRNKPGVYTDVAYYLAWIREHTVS
Wee1 degr inh – human Wee1 degradation inhibition, primary screen. 220,000 tested, 1.2% active. AID 1321. reporter increase, % at 5 µM. P30291. HeLa Luc-Wee1K328M stability, luciferase luminescence; 100% = proteasome inhibitor MG132 effect;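 active = activation above the mean of all tested compounds plus 3 SD, set per screening run, cut at about 8.8% in these data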;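 also: cells exposed to compound for 20 h before luminescence read; 0% = DMSO alone and 100% = MG132 at 30 µM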
FXIa inh – inhibitors of human coagulation factor XIa | P03951 | purified FXIa, Boc-Glu-Ala-Arg-AMC fluorogenic substrate | inhibition, % at 5 µM | 220,000 tested, 0.14% active;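 active = inhibition of at least 40%; inactive = inhibition below 40%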;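 also: fluorescence of freed AMC excited at 355 nm; 0% = enzyme without compound and 100% = no enzyme blank; many of its hits are not listed in these tables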
14-3-3 Bad PPI – disrupts binding of bovine 14-3-3 zeta to phospho-Bad peptide | TR-FRET 14-3-3zeta/Dy647-pBad peptide displacement, 1 h | inhibition, % at 21.7 µM | 220,000 tested, 0.71% active;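 active = inhibition above about 70%, limit read from the data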;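 also: 0% = full 14-3-3 plus peptide FRET controls and 100% = background without 14-3-3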
Target sequence (P63103 whole entry, looked up): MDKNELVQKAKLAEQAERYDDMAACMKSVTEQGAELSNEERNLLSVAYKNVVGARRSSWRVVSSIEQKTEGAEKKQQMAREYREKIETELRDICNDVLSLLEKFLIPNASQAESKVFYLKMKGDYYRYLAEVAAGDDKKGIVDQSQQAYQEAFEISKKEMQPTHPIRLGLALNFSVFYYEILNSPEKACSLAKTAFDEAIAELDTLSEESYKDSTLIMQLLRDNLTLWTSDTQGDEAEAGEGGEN
* hit, by the source's call; & = joins results of further samples; [ ] = another dose, or the depositor's remark.

`CC(=O)NC(O)C(=O)c1ccco1` (centres undefined) gave Hck-Nef inh 1, hK5 inh -2, thrombin 1536 2, FXIIa inh 1536 10, Wee1 degr inh -2, FXIa inh 4 and 14-3-3 Bad PPI -4.
Screening COC(=O)Sc1nnc(-c2ccc(Br)cc2)o1 returned Hck-Nef inh 1, hK5 inh -8, thrombin 1536 -1, FXIIa inh 1536 13, Wee1 degr inh -1, FXIa inh -3 and 14-3-3 Bad PPI 67[fluorescence artefact?].
Screening O=C(NCC1CCCO1)C1CC(=O)N(C2CCCCCC2)C1 (centres undefined) returned Hck-Nef inh 0, hK5 inh -3, thrombin 1536 2, FXIIa inh 1536 0, Wee1 degr inh -2, FXIa inh -5 and 14-3-3 Bad PPI -3.
Screening C/C(O)=c1/ccc2cccc3nc(C)nc1c23 returned Hck-Nef inh -1, hK5 inh -10, thrombin 1536 -2, FXIIa inh 1536 3, Wee1 degr inh 1, FXIa inh 2 and 14-3-3 Bad PPI 0[fluorescence artefact?].
Screening CC(=O)c1cn(S(=O)(=O)c2ccccc2)c2ccccc12 returned Hck-Nef inh -2, hK5 inh -21, thrombin 1536 -9, FXIIa inh 1536 -5, Wee1 degr inh 3, FXIa inh -6 and 14-3-3 Bad PPI 8.
For CCCOc1ccc(-c2nc(C#N)c(NCCCn3ccnc3)o2)cc1 the results were Hck-Nef inh 2, hK5 inh -23, thrombin 1536 1, FXIIa inh 1536 4, Wee1 degr inh 1, FXIa inh -3 and 14-3-3 Bad PPI -3.
For O=S(Cc1ccccc1)CC(O)(c1ccccc1)c1ccccc1 (centres undefined) the results were Hck-Nef inh -1, hK5 inh 17, thrombin 1536 -5, FXIIa inh 1536 -2, Wee1 degr inh 0, FXIa inh -9 and 14-3-3 Bad PPI -14.
Screening Cc1ccc(/C=C/C(=O)Nc2cc(C)on2)cc1 returned Hck-Nef inh 0, hK5 inh -16, thrombin 1536 -1, FXIIa inh 1536 15, Wee1 degr inh 1, FXIa inh -2 and 14-3-3 Bad PPI 4.
Screening COc1ccc2c(C)cc(SCC(=O)c3ccc4c(c3)OCO4)nc2c1 returned Hck-Nef inh 0, hK5 inh 4, thrombin 1536 12, FXIIa inh 1536 19, Wee1 degr inh -1, FXIa inh 6 and 14-3-3 Bad PPI -34[fluorescence artefact?].
O=C(NCc1ccco1)c1ccc(N2CCCC2=O)cc1 was read as Hck-Nef inh -1, hK5 inh -5, thrombin 1536 7, FXIIa inh 1536 12, Wee1 degr inh -2, FXIa inh 5 and 14-3-3 Bad PPI 0.

Retrieved by structure from above, two records:
Screening O=C(NCC1CCCO1)C1CC(=O)N(C2CCCCCC2)C1 (centres undefined) returned Hck-Nef inh 0, hK5 inh -3, thrombin 1536 2, FXIIa inh 1536 0, Wee1 degr inh -2, FXIa inh -5 and 14-3-3 Bad PPI -3.
Screening COc1ccc2c(C)cc(SCC(=O)c3ccc4c(c3)OCO4)nc2c1 returned Hck-Nef inh 0, hK5 inh 4, thrombin 1536 12, FXIIa inh 1536 19, Wee1 degr inh -1, FXIa inh 6 and 14-3-3 Bad PPI -34[fluorescence artefact?].

(list continues)
CCN(CC)CCOc1ccc2c(c1)C(=NO)c1cc(OCCN(CC)CC)ccc1-2 was read as Hck-Nef inh 0, hK5 inh 12, thrombin 1536 5, FXIIa inh 1536 15, Wee1 degr inh 8, FXIa inh 5 and 14-3-3 Bad PPI -4.
For COc1ccc(-n2c(N)c(C(=O)NCc3ccco3)sc2=S)cc1 the results were Hck-Nef inh -1, hK5 inh 1, thrombin 1536 4, FXIIa inh 1536 12, Wee1 degr inh -1, FXIa inh 2 and 14-3-3 Bad PPI -10.
For c1ccc(-c2n[nH]c(-c3ccccc3)c2-c2nc3ccccc3[nH]2)cc1 the results were Hck-Nef inh 2, hK5 inh -3, thrombin 1536 -3, FXIIa inh 1536 -3, Wee1 degr inh -3, FXIa inh -8 and 14-3-3 Bad PPI 5[fluorescence artefact?].
`Cc1ccc(C)c(NC(=S)NNC(=O)c2ccc(Br)o2)c1` gave Hck-Nef inh 0, hK5 inh -281, thrombin 1536 3, FXIIa inh 1536 9, Wee1 degr inh 2, FXIa inh -3 and 14-3-3 Bad PPI 4.
`COc1ccc(S(=O)(=O)/N=C2/C=CC(=O)C(C)=C2C)cc1` gave Hck-Nef inh 1, hK5 inh -4, thrombin 1536 0, FXIIa inh 1536 6, Wee1 degr inh -1, FXIa inh -16 and 14-3-3 Bad PPI 15.
For CCCCn1nc2cc(C(=O)NCc3ccc(OC)cc3)ccc2c1OCC the results were Hck-Nef inh 0, hK5 inh -21, thrombin 1536 -6, FXIIa inh 1536 7, Wee1 degr inh 7, FXIa inh 0 and 14-3-3 Bad PPI 9.
For CC1=C(C(N)=O)C(c2ccccc2)n2nc(-c3ccncc3)nc2N1 (centres undefined) the results were Hck-Nef inh 2, hK5 inh 4, thrombin 1536 2, FXIIa inh 1536 -2, Wee1 degr inh 3, FXIa inh 0 and 14-3-3 Bad PPI 4[fluorescence artefact?].
O=C1NC(=O)C(c2ccccc2)(c2ccccc2)N1 was read as Hck-Nef inh 1&1&-2, hK5 inh -12&-18&-11, thrombin 1536 4&-2, FXIIa inh 1536 5&2&12, Wee1 degr inh 2&-3&-1, FXIa inh 7&5&2 and 14-3-3 Bad PPI -3&-3&-3.
COc1ccc(CN2CC(C(=O)NCCC3=CCCCC3)CC2=O)cc1 (centres undefined) was read as Hck-Nef inh 1, hK5 inh 1, thrombin 1536 0, FXIIa inh 1536 1, Wee1 degr inh -2, FXIa inh 0 and 14-3-3 Bad PPI -9.
For COc1ccc(N(C)S(=O)(=O)c2c(C)[nH]c(=O)[nH]c2=O)cc1 the results were Hck-Nef inh 2, hK5 inh -26, thrombin 1536 0, FXIIa inh 1536 14, Wee1 degr inh -2, FXIa inh 6 and 14-3-3 Bad PPI 38[fluorescence artefact?].
Screening Cc1ccc(C)n1CCN1CCN(CC(=O)Nc2ccc(S(N)(=O)=O)cc2)CC1 returned Hck-Nef inh 0, hK5 inh -22, thrombin 1536 1, FXIIa inh 1536 13, Wee1 degr inh -2, FXIa inh 4 and 14-3-3 Bad PPI -10.
Screening Cc1[nH]nc(-c2ccc(O)cc2O)c1-c1ccc(Cl)cc1 returned Hck-Nef inh 38, hK5 inh 1, thrombin 1536 0, FXIIa inh 1536 34, Wee1 degr inh 0, FXIa inh 17 and 14-3-3 Bad PPI 0.
CC(NC(=O)OC1CCCCC1)N1C(=O)C2C3C=CC(C3)C2C1=O (centres undefined) was read as Hck-Nef inh -1, hK5 inh -10, thrombin 1536 1, FXIIa inh 1536 18, Wee1 degr inh -3, FXIa inh 4 and 14-3-3 Bad PPI -5.
Screening CC(=O)Nc1ccc(S(=O)(=O)NCC2CCC(C(=O)NCCC(C)C)CC2)cc1 (centres undefined) returned Hck-Nef inh 2, hK5 inh -19, thrombin 1536 -1, FXIIa inh 1536 13, Wee1 degr inh 0, FXIa inh -3 and 14-3-3 Bad PPI -2.
`COc1ccccc1C(=O)N/C(=C/c1ccccc1)C(=O)NC(CCSC)C(=O)O` (centres undefined) gave Hck-Nef inh 1, hK5 inh 10, thrombin 1536 0, FXIIa inh 1536 11, Wee1 degr inh -2, FXIa inh -3 and 14-3-3 Bad PPI 14.
`c1ccc(-c2csc(N3CCc4ccccc4C3)n2)cc1` gave Hck-Nef inh 2, hK5 inh -4, thrombin 1536 -4, FXIIa inh 1536 6, Wee1 degr inh 1, FXIa inh -3 and 14-3-3 Bad PPI -6.
Screening OCc1nnn(-c2cccc(C(F)(F)F)c2)c1CO returned Hck-Nef inh 0, hK5 inh -9, thrombin 1536 1, FXIIa inh 1536 22, Wee1 degr inh -3, FXIa inh 1 and 14-3-3 Bad PPI -3.
O=C(NC(Cc1c[nH]c2ccccc12)c1nnc2n1CCCCC2)c1ccc(Cl)cc1 (centres undefined) was read as Hck-Nef inh 1, hK5 inh 48*, thrombin 1536 14, FXIIa inh 1536 23, Wee1 degr inh -3, FXIa inh -1 and 14-3-3 Bad PPI -20.
`CCOc1ccc(NC(=O)C(C)Oc2ccccc2C(=O)Nc2ccc(C)c(Cl)c2)cc1` (centres undefined) gave Hck-Nef inh -1, hK5 inh 32, thrombin 1536 -7, FXIIa inh 1536 9, Wee1 degr inh 4, FXIa inh -2 and 14-3-3 Bad PPI -6.
For Cc1ccc(Oc2coc3cc(OC(=O)c4cccs4)ccc3c2=O)cc1 the results were Hck-Nef inh 3, hK5 inh -4, thrombin 1536 -3, FXIIa inh 1536 6, Wee1 degr inh 2, FXIa inh -10 and 14-3-3 Bad PPI 0.
`O=C(Cc1ccccc1)NC(NCCc1ccccc1)C(Cl)(Cl)Cl` (centres undefined) gave Hck-Nef inh 2, hK5 inh -1, thrombin 1536 -1, FXIIa inh 1536 17, Wee1 degr inh -2, FXIa inh 10 and 14-3-3 Bad PPI 3.
`Nc1ccc2oc(CCc3ccccc3)nc2c1` gave Hck-Nef inh 3, hK5 inh -21, thrombin 1536 -3, FXIIa inh 1536 11, Wee1 degr inh 2, FXIa inh 1 and 14-3-3 Bad PPI -6.
`COC(/C=C/Nc1ccc(Br)cc1)=C(C#N)C#N` gave Hck-Nef inh 0, hK5 inh 49*, thrombin 1536 38, FXIIa inh 1536 17, Wee1 degr inh -1, FXIa inh 2 and 14-3-3 Bad PPI 1.
`CC(=O)c1c(C)[nH]c(C(=O)N2CCc3ccccc3C2)c1C` gave Hck-Nef inh 4, hK5 inh 5, thrombin 1536 4, FXIIa inh 1536 2, Wee1 degr inh 1, FXIa inh -2 and 14-3-3 Bad PPI -3.
Cc1[nH][nH]c(=O)c1C(c1c(C)[nH][nH]c1=O)c1cn(Cc2cccc3ccccc23)c2ccccc12 was read as Hck-Nef inh 0, hK5 inh -44, thrombin 1536 -3, FXIIa inh 1536 4, Wee1 degr inh 0, FXIa inh -3 and 14-3-3 Bad PPI -9.
For Cc1cccc(-n2nnc(C(=O)NCc3ccco3)c2N)c1 the results were Hck-Nef inh -1, hK5 inh -6, thrombin 1536 -7, FXIIa inh 1536 -1, Wee1 degr inh 0, FXIa inh -7 and 14-3-3 Bad PPI 11.
CC(C)CCOc1ccc(/C=C2\CCn3c2nc2cc(C(=O)O)ccc2c3=O)cc1 was read as Hck-Nef inh 1, hK5 inh 3, thrombin 1536 3, FXIIa inh 1536 9, Wee1 degr inh 7, FXIa inh 2 and 14-3-3 Bad PPI 41.
`CCc1ccc(NC(=O)CC2C(=O)Nc3c2c(=O)n(C)c(=O)n3C)cc1` (centres undefined) gave Hck-Nef inh -1, hK5 inh -2, thrombin 1536 -3, FXIIa inh 1536 6, Wee1 degr inh 0, FXIa inh 0 and 14-3-3 Bad PPI 0[fluorescence artefact?].
Screening CCN(CC)c1nc(Nc2ccccc2)nc(Oc2ccc(C(=O)OC)cc2)n1 returned Hck-Nef inh 1, hK5 inh 17, thrombin 1536 -3, FXIIa inh 1536 1, Wee1 degr inh -1, FXIa inh -5 and 14-3-3 Bad PPI -2.
For CC(C)(C)C1CCC2(CC1)NC(CO)(CO)CO2 (centres undefined) the results were Hck-Nef inh -3, hK5 inh 15, thrombin 1536 -6, FXIIa inh 1536 12, Wee1 degr inh 4, FXIa inh -8 and 14-3-3 Bad PPI 0[fluorescence artefact?].
Cc1c(N=Cc2ccc(Br)s2)cccc1[N+](=O)[O-] was read as Hck-Nef inh 2, hK5 inh -12, thrombin 1536 -8, FXIIa inh 1536 4, Wee1 degr inh 2, FXIa inh -5 and 14-3-3 Bad PPI 8.
FC(F)(F)c1cc(Oc2ccc(Cl)cc2)nc(-c2ccccn2)n1 was read as Hck-Nef inh 0, hK5 inh -28, thrombin 1536 -3, FXIIa inh 1536 13, Wee1 degr inh 1, FXIa inh -3 and 14-3-3 Bad PPI 11[fluorescence artefact?].
For O=C(Oc1ccc2cc(Br)ccc2c1)c1cccnc1 the results were Hck-Nef inh 1, hK5 inh -19, thrombin 1536 1, FXIIa inh 1536 14, Wee1 degr inh 0, FXIa inh 3 and 14-3-3 Bad PPI 21[fluorescence artefact?].
`COC(=O)c1sccc1-c1ccc(/C=N/OCc2c(Cl)cccc2Cl)o1` gave Hck-Nef inh -1, hK5 inh -2, thrombin 1536 -1, FXIIa inh 1536 16, Wee1 degr inh -2, FXIa inh 5 and 14-3-3 Bad PPI 4.

High-throughput results deposited in PubChem BioAssay by several laboratories.

This is a subset; count on the stated rates, not on these rows.
